Six1-Eya2 inh: blocks human Six1 binding to Eya2; activity change, % (concentration not given with the values); AID 651725; Q15475+O00167; 0.56% of 360,000 active; AlphaScreen GST-Six1/His-Eya2 binding, biochemical; stronger effect = lower value; control for the full effect not named in the record; in the data active = activity change below about -65%; inconclusive = about -30% to -65%; inactive = above about -30%; also: % is scaled to controls: 0 for no effect and ±100 for the full control effect
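GST-Six1 + His-Eya2 (5X stock: 250/500 nM); Tris pH 8.0, 300 mM NaCl, 0.05% BSA, 0.02% Tween 20; GSH donor/Ni acceptor beads; 1 h 37 °C dark; AlphaScreen readout.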
CtBP-E1A blk: inhibitors of CtBP/E1A interaction | AlphaScreen GST-E1A/His-CtBP binding, 1536-well; stronger effect = lower value; control for the full effect not named in the record | activity change, % (concentration not given with the values) | 0.49% of 340,000 active | AID 651724; in the data active means activity change below about -65%; inconclusive means about -30% to -65%; inactive means above about -30%; also: % is scaled to controls: 0 for no effect and ±100 for the full control effect
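Protein mix (5X: 125 nM each GST-E1A, His-CtBP) was incubated with pinned compound 2 h at 37 deg C in dark, in 50 mM Tris pH 8.0 buffer with 300 mM NaCl. Glutathione donor and nickel acceptor beads followed; AlphaScreen signal read after 1 h.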
PINK1 expr mod: PINK1 expression modulation; 0.2% of 410,000 active; Potency, µM (highest dose often 76.6 µM), for inactives: at the top dose activation (PINK1 increase), usual class: activators; AID 624263; PINK1 immunofluorescence, high-content cytometry, 24 h; active = well fitted activation curve with a large enough effect; inconclusive = small, poorly fitted or top-dose-only effect; inactive = flat fitted curve, though single readings scatter; cell line not stated here;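 also: potency is read from the fitted curve at half-maximal effect; % of control where 0% means no effect; nearly all actives have a fitted effect of over 65% in size; a mitochondrial uncoupler was the plate control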
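Fluorescence from anti-PINK1 antibody, together with nuclear and cell stains, was scanned on a laser-scanning cytometer. Before staining, stable-line cells were incubated 24 hours with compounds at 5 concentrations; primary antibody 12 h at 10 degrees C.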
TRPML1 ag: agonists of human TRPML1 channel; 0.12% of 410,000 active; TRPML1-expressing cells, Ca2+ dye fluorescence, FDSS; host cell line not named in the record; reference of the full effect not given here; activation, % (test concentration not listed); Q9GZU1; in the data active = activation above about 50%; inconclusive = about 30% to 50%; inactive = below about 30%; also: 0% is about no effect; the text of the record puts the active cut at 80%
Target sequence (Q9GZU1 whole entry, looked up): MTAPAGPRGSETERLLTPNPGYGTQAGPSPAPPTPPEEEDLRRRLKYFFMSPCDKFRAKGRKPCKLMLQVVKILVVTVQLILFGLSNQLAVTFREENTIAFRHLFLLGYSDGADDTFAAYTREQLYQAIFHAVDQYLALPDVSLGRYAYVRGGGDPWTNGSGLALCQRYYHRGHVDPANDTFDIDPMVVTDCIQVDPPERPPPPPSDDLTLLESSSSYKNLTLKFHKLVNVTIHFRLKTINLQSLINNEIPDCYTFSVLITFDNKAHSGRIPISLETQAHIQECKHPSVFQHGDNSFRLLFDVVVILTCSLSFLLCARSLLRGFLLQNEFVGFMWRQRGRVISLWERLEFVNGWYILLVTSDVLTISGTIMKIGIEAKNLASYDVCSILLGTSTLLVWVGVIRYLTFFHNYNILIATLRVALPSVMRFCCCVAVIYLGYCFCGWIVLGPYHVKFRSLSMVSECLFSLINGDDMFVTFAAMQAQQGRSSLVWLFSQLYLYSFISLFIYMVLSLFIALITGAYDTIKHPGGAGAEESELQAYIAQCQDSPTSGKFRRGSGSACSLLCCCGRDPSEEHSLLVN
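Kinetic FDSS Ca2+ read in Tet-induced TRPML1-DL cells (ABD Ca8 dye plus quencher, 45-90 min RT loading): baseline, then compound, then 110 s agonist window; EC80 agonist 54-4 at 4uM final added afterwards for a 110 s antagonist window.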
TRPML1 inh: human mucolipin-1 channel inhibition; AID 624415; activity change, negative = inhibition, % (concentration not given with the values); 0.02% of 390,000 active; TRPML1-inducible cells, Ca2+ dye fluorescence, FDSS; stronger effect = lower value; inhibition of EC80 agonist-evoked calcium signal; in the data active means activity change below about -50%; inconclusive means about -30% to -50%; inactive means above about -30%;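 also: stimulus is agonist 54-4 at its EC80 concentration; % is scaled to controls: 0 for no effect and ±100 for the full control effect; compound concentration not given in the record; the text of the record puts the active cut at -80%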
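Calcium fluorescence in TRPML1-DL cells induced overnight with Tet: a 110 s read after compound pin addition, then a 110 s antagonist read after challenge with 54-4 at 4 uM final (EC80).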
D2 ag: human D2 receptor agonism in beta-arrestin assay. P14416. DiscoveRx PathHunter D2 beta-arrestin, luminescence, 90 min; 100% = 57 uM dopamine signal. activation, % (test concentration not listed). 0.084% of 360,000 active. AID 624465; in the data active = activation above about 40%; inconclusive = about 15% to 40%; inactive = below about 15%; also: compound concentration not given in the record; the text of the record calls up to 30% inactive
Target sequence (P14416 whole entry, looked up): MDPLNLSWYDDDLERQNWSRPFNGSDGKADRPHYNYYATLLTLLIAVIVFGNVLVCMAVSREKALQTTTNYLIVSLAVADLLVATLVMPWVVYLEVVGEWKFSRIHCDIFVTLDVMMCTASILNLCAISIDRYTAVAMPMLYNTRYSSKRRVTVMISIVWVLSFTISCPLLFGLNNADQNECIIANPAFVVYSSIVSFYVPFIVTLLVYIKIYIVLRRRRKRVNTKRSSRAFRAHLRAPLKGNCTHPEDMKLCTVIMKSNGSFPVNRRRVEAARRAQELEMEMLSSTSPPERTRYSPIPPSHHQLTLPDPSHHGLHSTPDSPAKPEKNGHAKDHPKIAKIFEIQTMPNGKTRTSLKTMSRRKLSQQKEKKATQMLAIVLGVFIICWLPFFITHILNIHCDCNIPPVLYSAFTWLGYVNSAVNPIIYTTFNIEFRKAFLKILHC
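DiscoveRx PathHunter D2 beta-arrestin cells (2,100/well) attached overnight, then compound-stimulated 90 min at 37 C in HBSS/10 mM HEPES/0.1% Tween-20 buffer; beta-galactosidase complementation read by luminescence after 1 h at ambient temperature. Dopamine 57 uM final (EC100) as control.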
* = called active by the depositor; ? = inconclusive; · = not tested or not shown; & = joins results of further samples; [ ] = another dose, or the depositor's remark.

SMILES	Six1-Eya2 inh	CtBP-E1A blk	PINK1 expr mod	TRPML1 ag	TRPML1 inh	D2 ag
COc1cc2cc(C(=O)N(C)C3CCS(=O)(=O)C3)[nH]c2cc1OC (stereo not given)	3.4	6.0	-0.9%	0.1	-6.0	-2.9
CCN(CC)S(=O)(=O)c1ccc(N2CC(C(=O)Nc3cccc(C(=O)NC4CC4)c3)CC2=O)cc1 (stereo not given)	-2.1	-0.2	2.4%	-0.4	-12.8	-0.4
COc1ccccc1CNC(=O)COC(=O)c1ccc(C(=O)c2ccccc2)cc1	-11.4	3.4	2.1%	1.1	-7.4	-2.6
Cc1ccc(NC(=O)CCN2C(=O)c3cccc([N+](=O)[O-])c3C2=O)c(Br)c1	-12.2	9.2	1.4%	-0.2	2.8	5.7
O=C(Nc1ccc(F)cc1)c1ccc(-n2cnc3cccnc32)cc1	·	·	-1.2%	0.3	-13.2	·
Cc1ccc(C)c(N(C)C(=O)CCNC(=O)Cn2cnc3ccccc3c2=O)c1	·	·	-0.2%	-0.7	0.1	·
C#CCCOC(=O)Nc1ccccc1	4.7	·	0.9%	2.8	-1.0	-1.7
Cc1c(C=O)c2ccccn2c1C(=O)c1ccncc1	-4.3	-5.8	1.0%[38.3 µM]	0.1	-2.8	-2.2
Cc1ccc(C(C)NC(=S)NCc2ccc(F)cc2)c(C)c1 (stereo not given)	-3.6	1.8	?	6.9	34.0	-3.8
COc1cccc(N2CCN(S(=O)(=O)c3cccc4nsnc34)CC2)c1	5.3	-5.5	-2.5%	-0.6	-3.6	-2.5
COC(=O)c1ccc(C(=O)OC)c(-n2c(=O)c3ccccc3c3ccccc3c2=O)c1	9.1	5.7	-1.1%	-0.3	?	-8.1
CCOC(=O)c1cc(C(=O)OCC)c2cccc(C)n2c1=O	4.5	2.8	-0.4%	0.2	-6.5	1.8
CN(Cc1ccccc1)C(=O)Nc1ccc2c(c1)N(C)C(=O)c1ccccc1S2	·	·	3.9%	0.8	-0.9	·
CC(=O)N1CCc2c(sc3c2c(=O)n(-c2ccccc2C)c(=O)n3CC(=O)c2ccccc2)C1	·	·	-0.3%	1.1	-15.3	·
Cc1ccc(NC(=O)CN(C)C(=O)c2cn(Cc3ccccc3)nc2-c2cccnc2)cc1	-14.8	3.9	-0.5%	0.4	-8.1	-3.0
O=C(c1ccccc1Cl)N1CCN(S(=O)(=O)c2cccs2)CC1	5.3	-9.3	-1.5%	0.7	7.0	-1.3
COc1ccc(N=C/C=C2/C=C(c3ccccc3)OC(C)(C)O2)cc1	-11.5	-0.9	2.8%	-0.2	-6.5	0.2
O=C(NCc1ccccc1)c1cccc2c(-c3ccc(F)c(F)c3)coc12	9.4	6.5	-0.6%	2.3	·	6.4
O=c1[nH]c(/C=C/c2ccc(Cl)cc2Cl)c([N+](=O)[O-])c(=O)[nH]1	-1.8	·	-0.8%	·	·	0.7
O=C(c1ccccc1F)N1CCC(O)(c2cccnc2)CC1	5.6	3.0	0.4%	0.0	6.6	-0.2
CCN(CC)C(=O)Cn1cc(SCC(=O)Nc2cc(OC)ccc2OC)c2ccccc21	·	·	1.5%	0.3	-5.9	·
COc1ccc(NC(=O)CCC(=O)Nc2nnc(CC(C)C)s2)cc1Cl	1.4	4.2	-0.6%	-0.7	13.6	-5.7
COc1ccc(NC(=O)c2nc[nH]c2C(=O)N(C)CCO)cc1	1.7	-11.2	1.2%	·	·	-0.9
COc1ccc2cc(C(=O)NC3CCCCC3)c(=O)oc2c1	1.4	-4.3	-1.7%	-0.5	-2.9	-3.9
Cc1cc2oc(=O)cc(CN3CCOCC3)c2cc1Cl	2.1	·	-0.1%	-0.3	-5.4	4.1
COCCNS(=O)(=O)c1cc(C)c(C)cc1C	25.9	34.3	-1.0%	0.8	0.9	-2.4
COc1ccc(S(=O)(=O)N(C(=O)c2ccncc2)c2ccc3oc(C)c(C(C)=O)c3c2)cc1	·	·	2.3%	0.6	7.7	·
CCOc1ccccc1N(C(=O)CNC(=O)c1ccco1)C(C(=O)NC1CCCC1)c1ccncc1 (stereo not given)	6.3	-13.6	-2.1%	-0.5	21.9	3.5
COc1ccc(CC(=O)NCC(=O)N/N=C/c2sccc2C)cc1	3.2	-7.3	0.5%	1.2	-10.1	-2.8
COc1ccc(Cn2c(SCC(N)=O)nc3c(sc4ccccc43)c2=O)cc1	·	·	0.3%	-0.7	25.2	·
CC1(C)CC(=O)C(N=Nc2ccc(Br)cc2)=C(O)C1	-4.7	0.1	11.2%	-0.1	-12.9	-2.6
CCN1C(=O)[C@H]2[C@H]3CN=C(SCC(=O)c4ccccc4)N3[C@@](C)(C(=O)OC)[C@H]2C1=O	3.0	1.1	-0.4%	0.4	5.6	-3.3
O=C1CC2(CCN(C(=O)c3ccc(Br)cc3)CC2)Oc2ccccc21	1.7	3.8	2.6%	0.0	-7.8	7.8
COc1ccc(CC(=O)Oc2ccc(C#N)cc2)cc1	4.4	-1.6	0.2%	-0.6	8.0	1.1
N#C/C(=C/c1cccc([N+](=O)[O-])c1)c1nnc2n1CCCCC2	9.6	5.6	2.4%	1.0	5.2	-1.5
CCc1ccc(S(=O)(=O)c2nnn3c2nc(N2CCN(c4ccccc4)CC2)c2cc(Cl)ccc23)cc1	·	·	0.8%	-0.6	-0.3	·
COc1cccc(NC(=O)CCCn2c(=O)[nH]c3ccccc3c2=O)c1	-2.5	0.8	-3.4%	0.7	27.5	0.1
CC1(C)C(/C=C/C=C/C=C/C=C2\N(CCCCS(=O)(=O)O)c3ccc4ccccc4c3C2(C)C)=[N+](CCCCS(=O)(=O)[O-])c2ccc3ccccc3c21	?	?	1.3%	-0.4	-3.8	-4.0
COc1cccc(C2C(C#N)=C(N)N(N(C)C)C3=C2C(=O)CCC3)c1 (stereo not given)	-4.1	1.2	0.6%	-0.1	17.2	1.8
CC1CC(C)(C)Nc2ccc(OC(=O)c3ccco3)cc21 (stereo not given)	-20.7	-12.1	-1.5%	0.3	8.5	?
Cc1cccc(OCc2ccc(C(=O)Nc3ccc(F)cc3)cc2)c1	13.6	-0.8	7.7%	0.0	5.9	2.1
CNc1ccc(/C=C/C(=O)c2cccc3ccccc23)cc1[N+](=O)[O-]	-10.4	0.6	1.5%	1.6	1.8	-1.1
CCOC(=O)N1CCC(Nc2c(NCCCN(CC)Cc3ccccc3)c(=O)c2=O)CC1	0.3&10.7	13.2&0.1	2.3%&0.0%	-0.6&-0.4	1.9&-1.6	-0.8&-4.8
COC(=O)Nc1nnc(COc2ccccc2)s1	6.9	-7.4	-0.1%	-0.2	-10.0	0.6
CCCCNC(=O)N1CCN(S(C)(=O)=O)CC1	6.1	2.8	1.4%	-0.9	-9.1	-3.4
COc1ccc2c(c1)CC/C2=N\OC(=O)c1ccccc1OC	7.9	·	1.3%	1.8	-7.0	-4.1
CC(=O)NCCNc1nc2cc(-c3cccc(C(F)(F)F)c3)sc2c(=O)n1C	1.1	-1.6	15.0%	-0.7	·	-1.8
COc1ccc(CCCN2CCC(CN3C(=S)NC[C@@H]3Cc3ccccc3)CC2)cc1OC	-11.4	-5.7	1.5%	-0.4	-16.6	-3.2
COc1cccc2cc(C(=O)NCCc3c(C)[nH]c4ccc(Br)cc34)c(=O)oc12	·	·	0.3%	1.8	-14.4	·
O=C(COC(=O)CN1C(=O)NC2(CCCC2)C1=O)Nc1c(Cl)cccc1C(F)(F)F	-0.1	8.3	0.5%	-0.2	-1.8	2.4
Continued.
SMILES	Six1-Eya2 inh	CtBP-E1A blk	PINK1 expr mod	TRPML1 ag	TRPML1 inh	D2 ag
O=C(NCCc1ccccc1)c1cccc(N2C(=O)C3CC=CCC3C2=O)c1 (stereo not given)	15.2	-6.1	0.0%	-0.7	4.6	-4.9
COC(=O)c1ccc(-c2nc(-c3ccc(OC)c(OC)c3)no2)cc1	·	·	-0.3%	-1.1	30.4	·
NC(=O)SCC(=O)Nc1ccc(Cl)cc1	-1.7	0.4	2.7%	-0.1	5.8	-3.6
Cn1nc(CC(=O)NC2CCCCCC2)c2ccccc2c1=O	7.3	5.0	1.3%	-0.5	1.2	-4.0
O=C(COC(=O)c1cc(S(=O)(=O)N2CCOCC2)ccc1Cl)Nc1ccccc1Cl	-1.9	-0.3	2.1%	0.3	4.8	4.2
Cc1ccc(-c2n[nH]c(=S)n2/N=C/c2cc3c(cc2[N+](=O)[O-])OCO3)cc1	-1.4	-1.3	0.8%[38.3 µM]	1.6	-15.1	1.9
C/C(=N\OC(=O)Nc1ccccc1)c1cnn(-c2cc(C(F)(F)F)cc(C)n2)c1C	-15.9	7.1	1.1%	-0.1	-4.1	-8.5
O=C(Nc1cccc(Cl)c1)ON1CCCCC1	6.3	3.0	0.1%	-0.2	1.3	-3.5
O=C(CCc1nc(-c2ccccc2F)no1)Nc1cccnc1	-3.3	11.5	-0.7%	0.0	-8.6	3.9
COC(=O)c1ccc(OCC(O)CNC2CCCC2)cc1 (stereo not given)	3.1	5.9	1.0%	0.7	-13.7	0.0
Cc1cc2ccccn2c1C(=S)NC(=O)c1ccccc1	?	?	0.8%	0.0	2.8	-5.3
CCC1Sc2ccccc2N(CC(=O)NCc2ccc3c(c2)OCO3)C1=O (stereo not given)	2.2	9.8	·	1.4	9.9	-4.1
O=C(Nc1cccc(-n2cnnn2)c1)c1cc(Cl)ccc1Cl	-5.1	3.1	0.3%	0.1	10.6	-0.2
NC1=NC[C@H](Cc2ccc(O)cc2)N1CCc1cccc2ccccc12	-11.2	-8.1	2.9%	0.4	10.0	-2.9
CNC(=O)COC(=O)/C=C/c1cccs1	4.3	-6.6	0.9%	-0.7	11.4	-5.1
c1cc(-c2nn[nH]n2)ccc1CN1CCCCC1	-16.5	-2.4	0.0%	-0.2	-8.6	-3.6
O=C(Nc1ccn(Cc2ccccc2F)n1)c1ccc(COc2ccccc2Cl)cc1	1.0	-17.5	0.9%	1.9	7.9	-1.0
Cc1ccn2c(NC3CCCC3)c(-c3ccncc3)nc2c1	-5.0	1.6	1.1%	·	·	-1.8
Cc1ccc(C(=O)NCc2cccc(C(F)(F)F)c2)cc1S(=O)(=O)N1CCCCC1	-1.9	14.1	3.8%	2.8	38.9	5.6
CCOc1ccc(CNCc2c(C(=O)O)c(C)n(Cc3ccc(C)cc3)c2C)cc1	·	·	-1.1%	-0.4	-19.5	·
Clc1ccc(-c2csc(-c3ccno3)n2)cc1	12.5	15.1	4.0%	2.1	-5.2	4.3
COc1cccc(N2CCN(c3ccc4nnc(CCC(=O)Nc5ccccn5)n4n3)CC2)c1	0.5	0.0	2.2%	-0.5	3.4	-0.2
Fc1ccc(CSc2nnc(-c3cnccn3)n2Cc2ccco2)cc1	2.6	-2.5	-2.7%	1.8	8.0	0.1
Cc1cc2nc(-c3ccc(Cl)cc3)c(Cc3ccsc3)n2c(C)c1Br	-1.6	-12.5	0.7%	2.2	·	·
